Screens deposited in PubChem by several laboratories.
MT1-MMP act inh: MT1-MMP (human) activation inhibition. P50281. HT1080 RFP-PRO-GFP cells, GFP/RFP ratio fluorescence, overnight; percent of plate control window, DMSO zero. GFP/RFP ratio change, % at 20 µM. 360,000 tested, 0.061% active. AID 651647;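 active = GFP/RFP ratio change of at least 30% with cell ATP level not reduced by more than half and red fluorescence within 50% of control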; note: strong numbers were not always called active
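Assay system: RFP-PRO-GFP reporter HT1080 cells; read-out basis: GFP/RFP fluorescence ratio; benchmarks: DMSO wells and RFP-L50D-GFP cells; doses: 20 µM single dose, 1% DMSO; schedule: overnight cell settling, then overnight compound exposure, 37 °C, 5% CO2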
HIV Env fusion: blocks HIV Env-driven cell-cell fusion. inhibition, % at 12.3 µM. HeLa-JRFL Env/CEM21 cell fusion, luciferase. 360,000 tested, 1.1% active;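 active = mean replicate inhibition score of at least 50 and every replicate individually at or above 50; inconclusive = only one of the two criteria met; inactive = mean below 50 and not all replicates reaching 50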;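 note: 0% = plate neutral controls and 100% = maraviroc near 300 nM; one replicate is shown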
PABP FP inh: blocks human PABP binding to poly(A) RNA. 290,000 tested, 1% active. inhibition, % at 35 µM. AID 2014. fluorescence polarization. P11940;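 active = 50% or more with normal probe brightness, or confirmed in later tests; inconclusive = above 50% with abnormal brightness, or retests that disagree; inactive = below 50% or failed in later tests; about a fifth of its hits are not listed in these tables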;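 note: calls also rest on retests at 20 µM and on dose response follow-up; controls were probe without protein and protein plus probe with vehicle; some compounds called inactive have numbers as strong as hits; many hits fall short of the cut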
Target sequence (P11940 whole entry, looked up): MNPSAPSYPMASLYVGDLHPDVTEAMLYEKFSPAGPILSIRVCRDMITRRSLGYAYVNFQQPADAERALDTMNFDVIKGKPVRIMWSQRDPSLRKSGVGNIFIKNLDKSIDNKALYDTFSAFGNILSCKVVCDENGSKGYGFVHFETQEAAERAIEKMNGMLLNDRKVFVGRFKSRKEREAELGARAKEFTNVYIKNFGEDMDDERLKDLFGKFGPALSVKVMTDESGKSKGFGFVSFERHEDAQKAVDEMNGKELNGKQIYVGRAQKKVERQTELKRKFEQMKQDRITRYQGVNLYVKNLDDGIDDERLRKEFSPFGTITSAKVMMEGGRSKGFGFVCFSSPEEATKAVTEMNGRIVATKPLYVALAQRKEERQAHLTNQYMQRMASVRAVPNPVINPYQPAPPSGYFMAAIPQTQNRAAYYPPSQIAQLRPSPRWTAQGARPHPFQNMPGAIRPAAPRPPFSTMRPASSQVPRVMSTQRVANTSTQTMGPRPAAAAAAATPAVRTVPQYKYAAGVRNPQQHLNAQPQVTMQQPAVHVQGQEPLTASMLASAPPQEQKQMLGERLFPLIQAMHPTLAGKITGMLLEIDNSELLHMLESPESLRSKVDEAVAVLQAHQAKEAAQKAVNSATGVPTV
Yeast UUG start: yeast start codon fidelity modulation. S. cerevisiae UUG-firefly luciferase reporter, luminescence/redox ratio. activity score, % at 18.7 µM. 350,000 tested, 0.13% active. AID 602363;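 active = replicate mean at a twofold rise or more, about +100% in these data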;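 note: firefly luciferase made from a UUG start codon reports start codon fidelity; reporter light over untreated wells divided by growth signal over untreated wells; some hits fall short of that in this replicate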
CSC inhib: cancer stem cell inhibition. inhibition, % at 7.5 µM. AID 2717. 300,000 tested, 1.1% active. cancer stem cell-like cells viability, luminescence;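 active = mean at 75% or more and at least half the replicates too; inconclusive = mean and replicates disagree; tested in HMLE shEcad cells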;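 note: 0% = median of negative and 100% = median of positive control wells; the first replicate is given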
eIF4H inh: inhibitors of RNA binding by human eIF4H | eIF4H fluorescence polarization binding assay | inhibition, % at 35 µM | 290,000 tested, 0.94% active | AID 2012;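 active = 50% or more with normal probe brightness, or confirmed in later tests; inconclusive = above 50% with abnormal brightness, or retests that disagree; inactive = below 50% or failed in later tests; about a fifth of its hits are not listed in these tables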;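 note: calls also rest on retests at 20 µM and on dose response follow-up; 0% = protein and probe with vehicle and 100% = probe without protein; strong numbers were not always called active; many hits fall short of the cut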
Rce1 inh: blocks yeast Ras-converting enzyme. Q03530. yeast membranes, quenched prenylated peptide cleavage fluorescence. calls only. 290,000 tested, 0.27% active;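 active = fall in fluorescence gain of 50% or more versus controls, with final raw signal at or below 3038400; inconclusive = same 50% fall but final raw signal above 3038400; inactive = fall in fluorescence gain under 50%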;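 note: plate controls were neutral control wells for no effect and wells lacking membranes for full effect; tested at 10 µM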
Target sequence (Q03530 whole entry, looked up): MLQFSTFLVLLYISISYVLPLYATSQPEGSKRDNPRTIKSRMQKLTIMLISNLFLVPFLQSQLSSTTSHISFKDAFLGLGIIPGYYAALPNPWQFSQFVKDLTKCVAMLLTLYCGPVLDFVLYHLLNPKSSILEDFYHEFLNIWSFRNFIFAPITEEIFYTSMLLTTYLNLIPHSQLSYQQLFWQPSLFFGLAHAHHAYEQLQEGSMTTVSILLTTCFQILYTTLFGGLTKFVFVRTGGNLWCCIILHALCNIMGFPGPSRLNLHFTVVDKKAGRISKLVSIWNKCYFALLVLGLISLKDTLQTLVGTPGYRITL
eIF4H inh retest: second read-out of eIF4H inh, no call of its own (marks repeat the call); inhibition, %; compound at 20 µM; confirmation average;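 mean of two retest wells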
PABP FP inh retest: also measured in PABP FP inh; calls as there; inhibition, %; compound at 20 µM; confirmation repeats;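 mean of two retest wells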
MT1-MMP act inh RFP: further read-out of MT1-MMP act inh, marked with its call; RFP signal change, %; measured here: RFP expression control read;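 0 = vehicle wells; hits needed this value within 50% of zero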
* = called active by the depositor; i = inactive; ? = inconclusive; . = no result given. An excerpt; rates above refer to the full screens.

SMILES | MT1-MMP act inh | MT1-MMP act inh RFP | HIV Env fusion | PABP FP inh | Yeast UUG start | CSC inhib | eIF4H inh | Rce1 inh | others
CCNC(=O)NC1c2ccccc2CSc2ccccc21 (configuration not stated) | -2 | -2 | 2 | . | -2 | 0 | . | i
CCOC(=O)c1ccccc1NC(=O)C=C(C)C | -9 | -2 | 4 | -2 | -33 | 3 | 3 | i
Nc1n[nH]c(N)c1N=Nc1cccc(C(F)(F)F)c1 | 0 | -2 | -6 | 0 | -25 | 8 | -6 | i
COc1ccc2c(C(=O)c3ccc(C)cc3)n(CCCC(N)=O)[n+]([O-])c2c1 | 5 | 6 | -12 | . | -11 | -9 | . | i
CCc1cc(C(=O)N/N=C/c2c(C)[nH]c3ccccc23)cs1 | 3 | 0 | -6 | ? | . | 5 | -4 | i
Cc1cc(NC(=O)CSc2ccc(Cl)cc2)no1 | -3 | 1 | 0 | 1 | -10 | -5 | 1 | i
CC1CCN(c2ccc(-c3ccc(NC(=O)c4ccco4)cc3)nn2)CC1 | 1 | 2 | -17 | . | -37 | . | . | i
O=C(O)CCC(=O)Nc1ccc(S(=O)(=O)c2ccc(NC(=O)CCC(=O)O)cc2)cc1 | -4 | 6 | -3 | 2 | -6 | -1 | -7 | i
CSCc1c(C(=O)N2CCCc3ccccc32)oc2ccccc12 | -3 | -5 | 6 | . | 3 | -6 | . | .
CCCCSCCCNC(=O)C1CCC(CNS(=O)(=O)c2ccccc2)CC1 (configuration not stated) | -3 | -4 | -8 | 5 | -13 | -5 | -9 | i
CCN(CC)C(=O)C1CCCN(C(=O)Nc2ccc3nsnc3c2)C1 (configuration not stated) | -4 | 0 | . | -9 | -6 | -3 | -3 | i
CC1(C(=O)Nc2ccc3c(c2)OCO3)CCN1Cc1ccccc1OC(F)F (configuration not stated) | 2 | -10 | -6 | . | 0 | . | . | .
CN(Cc1nc2ccccc2c(=O)[nH]1)C(=O)c1cc2c(s1)CCCCC2 | 3 | -4 | 9 | . | -19 | . | . | .
O=C(CCc1ccccc1)NCCCNC(=O)CCc1ccccc1 | -2 | 3 | 5 | . | -5 | . | . | .
Cc1cccc(NC(=O)c2cnc3sccn3c2=O)c1 | 3 | 6 | -41 | -1 | -42 | -14 | 3 | i

Seven records drawn at random from the list so far, as already listed:
SMILES | MT1-MMP act inh | MT1-MMP act inh RFP | HIV Env fusion | PABP FP inh | Yeast UUG start | CSC inhib | eIF4H inh | Rce1 inh | others
CN(Cc1nc2ccccc2c(=O)[nH]1)C(=O)c1cc2c(s1)CCCCC2 | 3 | -4 | 9 | . | -19 | . | . | .
Cc1cc(NC(=O)CSc2ccc(Cl)cc2)no1 | -3 | 1 | 0 | 1 | -10 | -5 | 1 | i
CCc1cc(C(=O)N/N=C/c2c(C)[nH]c3ccccc23)cs1 | 3 | 0 | -6 | ? | . | 5 | -4 | i
CCOC(=O)c1ccccc1NC(=O)C=C(C)C | -9 | -2 | 4 | -2 | -33 | 3 | 3 | i
CCNC(=O)NC1c2ccccc2CSc2ccccc21 (configuration not stated) | -2 | -2 | 2 | . | -2 | 0 | . | i
Nc1n[nH]c(N)c1N=Nc1cccc(C(F)(F)F)c1 | 0 | -2 | -6 | 0 | -25 | 8 | -6 | i
COc1ccc2c(C(=O)c3ccc(C)cc3)n(CCCC(N)=O)[n+]([O-])c2c1 | 5 | 6 | -12 | . | -11 | -9 | . | i

(listing goes on)
SMILES | MT1-MMP act inh | MT1-MMP act inh RFP | HIV Env fusion | PABP FP inh | Yeast UUG start | CSC inhib | eIF4H inh | Rce1 inh | others
CC(NC(=O)CN1CCOCC1)c1ccc(F)cc1 (configuration not stated) | 0 | 0 | 9 | -8 | -18 | -8 | -4 | i
CCCCCNC(=O)c1cccc(S(=O)(=O)N2CC3(C)CC2CC(C)(C)C3)c1 (configuration not stated) | -10 | -17 | 19 | . | -17 | 8 | . | i
CCOC(=O)c1cc(=O)cc(C(=O)OCC)o1 | 7 | 5 | . | 4 | -5 | -2 | 5 | i
CCc1nnc(NC(=O)CSc2nnc(Cc3ccccc3)n2-c2ccc(OC)cc2)s1 | 2 | 3 | -34 | 31 | 10 | -16 | -6 | i
CCn1cc(Br)c(C(=O)Nc2nccs2)n1 | -1 | -1 | -1 | -11 | . | -7 | -6 | i
CC(=O)Oc1cccc(N2C(=O)c3ccc(C(=O)Nc4c[nH]c(=O)[nH]c4=O)cc3C2=O)c1 | -1 | 3 | . | -3 | . | 2 | -1 | i
COc1ccc(NC(=O)CSc2c3c(nc4ccccc24)CCC3)c(OC)c1 | -4 | 1 | -25 | -6 | -8 | 3 | 2 | i
O=C(Cn1nnc(-c2ccc(Cl)cc2)n1)NCc1ccco1 | 2 | 2 | 6 | 1 | . | 2 | 58 | i | eIF4H inh retest=11;PABP FP inh retest=6
Cc1ccc(C)c(NC(=O)CCc2nnc3ccc(N4CCCC4)nn23)c1 | -2 | 1 | 0 | 0 | -1 | -9 | -18 | i
COc1cccc(OC)c1OCCNCC1COc2ccccc2O1 (configuration not stated) | 0 | 3 | 2 | . | -13 | 6 | . | i
COc1cc2c3c(c1)C1(C(=O)N3C(C)(C)C=C2C)C(C#N)=C(N)Oc2cc(O)ccc21 (configuration not stated) | 2 | -1 | -78 | -4 | -5 | 14 | -5 | i
CCc1ccccc1-n1c(SCC(=O)N2CCCC2)nnc1-c1ccccn1 | 4 | 3 | -26 | -4 | -21 | . | 0 | i
COc1ccc2[nH]c(C(=O)O)c(CCNC(C)=O)c2c1 | 3 | 0 | . | -1 | -20 | -13 | -6 | i
CC(C)C(NC(=O)c1ccc(C(C)(C)C)cc1)C(=O)NCC(c1ccccc1)N(C)C (configuration not stated) | 2 | 0 | 11 | 7 | . | 7 | -5 | i
COc1ccc(N(CC(=O)N2CCN(Cc3ccc4c(c3)OCO4)CC2)S(=O)(=O)c2ccc(F)cc2)cc1 | -3 | -4 | 10 | -5 | 9 | -15 | -2 | i
CCOC(=O)C1=CCN(S(=O)(=O)c2ccccc2Cl)C1c1ccc(C)cc1 (configuration not stated) | -2 | -7 | 28 | . | 9 | . | . | .
Cc1cc(C)n(/N=C/c2cc(Cl)cc(Cl)c2O)c(=O)c1 | -2 | 5 | 12 | 15 | . | -3 | 22 | i
COC(=O)c1ccc(CSc2nccn2C)cc1 | 2 | 3 | -271 | 11 | -28 | -12 | -13 | i
O=[N+]([O-])c1ccc(CSc2ncnc3ccccc23)cc1 | -11 | -9 | 15 | -14 | -13 | -9 | 4 | i
CSc1nccc(N/N=C/c2ccccc2)n1 | -1 | -9 | -83 | -4 | -3 | 3 | -4 | i
O=C(COC(=O)c1cccnc1Cl)Nc1cccc(S(=O)(=O)N2CCOCC2)c1 | -3 | 0 | 0 | . | -13 | 7 | . | .
N#Cc1nc(-c2ccccc2F)oc1N1CCCC1 | 0 | -2 | -12 | -2 | -6 | 0 | -5 | i
N#C/C(=C\c1cc(Cl)cc(Cl)c1O)C(=O)NC1CCCCC1 | -20 | 2 | . | ? | . | 5 | ? | .
COc1ccc(NC(=O)CCCCCN2C(=O)c3ccccc3C2=O)c(OC)c1 | -3 | 1 | 9 | 3 | -19 | -11 | 7 | i
O=C(Nc1ccc(S(=O)(=O)N2CCOCC2)cc1)c1ccc([N+](=O)[O-])cc1Cl | -4 | -7 | -12 | 5 | -7 | -5 | 7 | i
Cc1cccc(NC(=S)NCCc2ccc(S(N)(=O)=O)cc2)c1C | -1 | 1 | 11 | -2 | . | -14 | 7 | i
O=C(COc1ccc2c3c(c(=O)oc2c1)CCC3)NC1CCCCC1 | 0 | -2 | . | 3 | 0 | 5 | 10 | i
O=C(C[C@@H]1C/C=C\CCCC(=O)OC[C@@H]2CCCN2C1=O)NCCO | 0 | 1 | -10 | . | -7 | . | . | .
CCN(c1ccccc1)S(=O)(=O)c1ccc(Cl)c(C(=O)O)c1 | 1 | 1 | 9 | 10 | -17 | -20 | 0 | i
Cc1cc(C)nc(NS(=O)(=O)c2ccc(NC(=O)c3nn(-c4ccccc4)ccc3=O)cc2)n1 | 3 | 3 | -3 | . | 17 | -12 | . | i
CC(=O)c1ccc(OCCCC(=O)Nc2cccc(-c3nn[nH]n3)c2)cc1 | 3 | -1 | -10 | 6 | 2 | 10 | -19 | i
COc1ccccc1/C=C/C(=O)Oc1cccc2cccnc12 | 3 | 4 | 10 | -7 | -18 | 4 | 2 | i
CC1Sc2ccc(S(=O)(=O)CCC(=O)Nc3ccccc3Cl)cc2NC1=O (configuration not stated) | 1 | 1 | -2 | 1 | -19 | -3 | -11 | i
CCOC(=O)N1CCN(Cc2ccccc2Cl)CC1 | 0 | 0 | 5 | 10 | -16 | -3 | -5 | .
CCOc1ccc(-n2c(C)c(C(=O)OC)c3cc(O)ccc32)cc1 | -1 | -5 | 23 | 12 | -11 | 2 | 8 | i
COc1ccc(CN(C)C(=O)c2[nH]c(C)c(C(C)=O)c2C)cc1F | -1 | -12 | 9 | 2 | . | 1 | 5 | i
C1=CCC(CN2CCN(C3CCCCCC3)CC2)CC1 (configuration not stated) | 3 | 7 | -4 | 4 | . | 44 | 2 | i
COc1ccc(CCNC(=O)c2cc(S(=O)(=O)N3CCCC3)cn2C)cc1OC | -4 | 2 | 45 | -12 | -13 | -8 | -5 | i
CCC(=O)Nc1cccc(-c2nnc(-c3cccc(NC(=O)CC)c3)o2)c1 | 7 | 3 | . | 7 | -8 | -11 | 11 | .
c1ccc(OCCNc2ccn3nc(-c4ccco4)cc3n2)cc1 | -3 | 2 | -20 | . | -4 | . | . | .
CCCCNC(=S)NNC(=O)c1csc2ccccc12 | 3 | 2 | . | -6 | . | 5 | -5 | i
CC(C)OC(=O)c1ccc(NC(=O)Cn2c(-c3nonc3N)nc3ccccc32)cc1 | -2 | -3 | -186 | 0 | -21 | -24 | -12 | i
Cc1ccccc1C(=O)NC1CCN(CC(=O)NCc2cccs2)CC1 | 2 | 1 | 0 | 3 | . | -8 | 4 | .
COCCN1C(=O)N[C@@H](c2ccco2)C(C(C)=O)=C1C | -1 | 2 | 29 | 9 | -15 | 24 | 42 | i
COc1cc(S(=O)(=O)N2CCCCC2)ccc1NC(C)=O | 1 | 0 | 9 | -10 | -19 | 5 | -1 | i
COCC(C)n1c(C)cc(C(=O)CN2c3cccc4cccc(c34)S2(=O)=O)c1C (configuration not stated) | -2 | 0 | -4 | . | -7 | 1 | . | .
O=C(c1cnn(-c2ccccc2)c1)c1ccc2ccccc2c1O | 10 | 6 | -100 | 6 | -8 | -2 | 14 | i
C/C(Cc1ccccc1)=N\NC(=O)CNC(=O)c1ccc2c(c1)OCCO2 | 2 | 1 | -97 | 3 | -16 | -8 | 0 | i

Sorted by number of heavy atoms (smallest number first): 3 of the compounds above
SMILES | MT1-MMP act inh | MT1-MMP act inh RFP | HIV Env fusion | PABP FP inh | Yeast UUG start | CSC inhib | eIF4H inh | Rce1 inh | others
CCCCNC(=S)NNC(=O)c1csc2ccccc12 | 3 | 2 | . | -6 | . | 5 | -5 | i
O=C(c1cnn(-c2ccccc2)c1)c1ccc2ccccc2c1O | 10 | 6 | -100 | 6 | -8 | -2 | 14 | i
Cc1ccccc1C(=O)NC1CCN(CC(=O)NCc2cccs2)CC1 | 2 | 1 | 0 | 3 | . | -8 | 4 | .
